Polio RdRp inh – inhibitors of poliovirus RNA polymerase binding and polymerization; % elongation, % (compound at 16.7 µg/mL); poliovirus polymerase elongation, fluorescence polarization; active compounds read low; AID 588519; P03300; actives 0.66% (n = 150,000); in the data active = % elongation below about 90%; note: some results filed as inactive read as strong as hits
Target sequence (P03300 1749-2209 limits assumed): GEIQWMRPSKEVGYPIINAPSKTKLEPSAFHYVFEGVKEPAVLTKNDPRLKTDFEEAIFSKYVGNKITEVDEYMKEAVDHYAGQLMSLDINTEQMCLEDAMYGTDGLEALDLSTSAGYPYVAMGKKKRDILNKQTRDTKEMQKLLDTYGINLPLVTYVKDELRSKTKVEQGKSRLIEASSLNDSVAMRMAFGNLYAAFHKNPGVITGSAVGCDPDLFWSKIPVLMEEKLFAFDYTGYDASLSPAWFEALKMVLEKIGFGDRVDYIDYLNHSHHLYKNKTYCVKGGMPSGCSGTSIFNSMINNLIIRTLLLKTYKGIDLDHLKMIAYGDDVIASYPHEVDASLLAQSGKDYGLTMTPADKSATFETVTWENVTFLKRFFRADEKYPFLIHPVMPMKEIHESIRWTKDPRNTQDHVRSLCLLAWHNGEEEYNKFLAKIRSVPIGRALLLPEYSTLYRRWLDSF
Mtb MenB inh – Mtb MenB enzyme inhibition. P9WNP5. MenB enzyme assay, absorbance read-out; some hits fall short of the stated cut. inhibition, %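 (about 12 µg/mL by stock and volumes)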. actives 0.43% (n = 100,000). AID 540299;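 active = mean of two replicates above 30%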;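 note: 0% = no compound and 100% = wells with inactive enzyme; the first replicate is given; strong numbers were not always called active; inactives centre near -10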
Target sequence (P9WNP5 whole entry, looked up): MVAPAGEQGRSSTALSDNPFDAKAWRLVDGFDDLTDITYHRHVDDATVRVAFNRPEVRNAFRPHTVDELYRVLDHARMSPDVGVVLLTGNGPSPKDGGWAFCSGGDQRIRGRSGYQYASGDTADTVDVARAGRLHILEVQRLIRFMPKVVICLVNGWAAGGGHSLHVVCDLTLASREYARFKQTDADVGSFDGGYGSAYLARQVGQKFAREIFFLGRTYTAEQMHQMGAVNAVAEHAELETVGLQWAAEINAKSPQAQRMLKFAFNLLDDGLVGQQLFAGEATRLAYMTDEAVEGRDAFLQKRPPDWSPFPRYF
Mtb MbtI inh – blocks the Mycobacterium tuberculosis siderophore enzyme MbtI | AID 493033 | actives 0.89% (n = 100,000) | P9WFX0 | inhibition, %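 (about 17 µg/mL by stock and volumes)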 | purified MbtI enzyme, fluorescence intensity read-out;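 active = above 50% in both replicates, above 80% if mildly self-fluorescent; inactive = the rest, strongly fluorescent compounds included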;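 note: 0% = mean of negative and 100% = mean of positive controls; one replicate is shown; some compounds called inactive have numbers as strong as hits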
Polio RdRp inh intensity – further read-out of Polio RdRp inh, marked with its call; % elongation; measured here: total intensity read-out; formula for this scale not given here;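 total fluorescence in place of polarization; lower means less elongation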
The depositor's hits bear a star; i = inactive; · = not tested or not shown; & = joins results of further samples.

compound	Polio RdRp inh	Mtb MbtI inh	Mtb MenB inh	Polio RdRp inh intensity
C=CCN1C(=O)C2C(C(=O)NCc3ccccc3)C3C=CC2(O3)C1C(=O)NC(C)(C)C (stereo unspecified)	105	-3	-49	101
CC1=Nc2nc(N3CCOCC3)c(C#N)c3c4c(nc(c23)N1)N(c1cccc(Cl)c1)C(=O)C4	110	-193	-8	111
CC(=O)N1c2ccccc2Sc2ccccc21	100	0	26	101
CN(C)S(=O)(=O)c1ccc2c(c1)oc(=O)n2C	105	5	27*	103
COc1cc(/C=C/C(=O)OCC(N)=O)ccc1OCC#N	104	20	-26	106
CCCOc1ccc(Oc2nc(N(C)C)nc(N(C)C)n2)nn1	101	11	-38	105
Cc1cc(Oc2ccc(=O)n(C)n2)nc(Oc2ccc(=O)n(C)n2)n1	101	-2	6	108
CC1CCN(C(=O)c2ccccc2NS(=O)(=O)c2ccc(F)cc2)CC1	102	-6	·	97
CCn1c(=NC(=O)c2ccc(C#N)cc2)sc2cccc(F)c21	105	4	-14	107
CC(=O)N1c2ccccc2NC2=C(C(=O)CCC2)C1c1ccc(N(C)C)cc1 (stereo unspecified)	102	3	-1	104
COc1ccc(NC(C)C(=O)N/N=C/c2ccccc2OC)cc1 (stereo unspecified)	107	1	-28	101
CSc1nc(N)nc(SCCS(=O)(=O)c2ccc(Cl)cc2)c1C#N	100	2	-31	102
CC(=O)N1[C@@H](c2ccc(F)cc2)SC[C@H]1C(=O)O	100	·	5	98
Cc1ccc2c(c1)C1CN(C)CCC1N2C(=O)Nc1ccc(F)cc1F (stereo unspecified)	105	-5	-13	106
CCSc1nnc(C)c(=O)[nH]1	109	·	-13	106
CC(NC(=O)C1CCCN1C(=O)c1cccs1)c1ccc(-n2ccnc2)cc1 (stereo unspecified)	·	-5	5	·
O=c1[nH]c2c(s1)C(c1ccco1)C1C3CCC(C3)C1S2 (stereo unspecified)	98	12	2	127
C=C(C)C1CC=C(CNc2ccc3c(c2)OCO3)CC1 (stereo unspecified)	77	-28	-37	176
CCOC(=O)Cc1cc(=O)c2c(=O)n(-c3ccccc3)[nH]c2[nH]1	100	22	2	99
COC(=O)/C(C#N)=C\Nc1ccccn1	102	9	-6	103
COc1ccccc1-c1[nH]ncc1CNCCc1ccccc1	103	-15	1	106
O=C(Nc1ccc(N2CCCCC2)cc1)C1CCCC1	106	-2	-23	98
CC(O/N=C/c1ccco1)C(=O)N1CCN(Cc2ccccc2)CC1 (stereo unspecified)	105	i	-26	107
C=CCN1COc2c(ccc3c(C(=O)OCC)c(NC(=O)c4ccccc4)sc23)C1	105	·	1	105
CCc1cc2c(=O)c(-c3nc(C)cs3)coc2cc1O	102	·	0	104
CC1CC(=O)Nc2ccccc2N1C(=O)Cn1cnc2ccc(Br)cc2c1=O (stereo unspecified)	102	29	-6	101
OCCNc1nc2ccccc2n1-c1ncnc2sc3c(c12)CCCC3	105	0	-14	108
CCn1c(=S)[nH]c2c(c1=O)C1(CCCC1)Cc1ccccc1-2	103	-5	-4	102
CCN(CC(=O)Nc1ccccc1)S(=O)(=O)c1ccccc1	102	-12	-9	100
Cc1ccc(S(=O)(=O)CC(c2ccccc2)N2CCOCC2)cc1 (stereo unspecified)	102	6	-17	103
COc1ccccc1CC(=O)N(C(C)C)C(C)C	99	-21	4	104
CC(=O)N1c2ccccc2C(C)(c2ccccc2)CC1(C)C (stereo unspecified)	101	·	-3	108
N#Cc1c(-c2ccccc2)cc(-c2ccccc2)nc1N	109	·	-45	120
Cc1noc(C)c1C(=O)N(c1ccccc1)C(C(=O)NC1CCCC1)c1ccc(F)cc1 (stereo unspecified)	103	-3	3	100
COC(CNC(=O)c1ccc(NC2=NC3CS(=O)(=O)CC3S2)cc1)OC (stereo unspecified)	101	-9	-5	100
CCN1C(=O)/C(=C2/Sc3ccc(OC)cc3N2C)OC1=S	99	-6	-70	100
NS(=O)(=O)c1ccc(CCNC(=O)CSc2nc3ccccc3c(=O)n2C2CCCC2)cc1	102	8	-28	106
CCCCc1noc2c1/C(=N\O)CC(c1ccccc1)C2 (stereo unspecified)	106	-6	-14	101
COC(=O)C(NC=O)C(O)(C#Cc1ccccc1)C(F)(F)F (stereo unspecified)	101	-6	-20	110
O=C(NCc1ccncc1)C1CCN(S(=O)(=O)c2ccccc2)CC1	103	-14	-51	101
O=C(O)C1CCCN1S(=O)(=O)c1cccs1 (stereo unspecified)	104	·	-23	109
CC(=O)N1CCOc2ccc(S(=O)(=O)NCC3CCC(C(=O)Nc4ccc(C)cc4)CC3)cc21 (stereo unspecified)	100	-15	-14	101
CC(C)(Br)C(=O)Nc1nccs1	105	-2	·	107
CCCCn1nnc(NC(=O)c2cccc(F)c2)n1	100	-2	4	101
NCCCCn1ccnc1	104	-8	-6	102
O=C(CC1(O)C(=O)N(Cc2ccccc2)c2ccccc21)c1ccncc1 (stereo unspecified)	102	4	·	95
O=C(Nc1cc(-c2ccc(Cl)cc2)[nH]n1)C1Cc2ccccc2C1	114	0	-2	115
O=c1c2c([nH]c3ccccc13)CCCC2	97&101	-132&15	-21&-19	98&102
O=C(O)c1ccc(Cn2ccc3ccccc32)o1	101	16	4	102
CC(C)(C)CC(=O)Nc1cccc(F)c1	100	4	2	103
CCOC(=O)N/N=C/c1ccccc1C(F)(F)F	103	-5	-15	108
NS(=O)(=O)c1ccc(CCNCC(=O)N2CCc3ccccc32)cc1	105	-6	-16	113
Cc1cccc(C)c1NC(=O)CSCC(=O)O	101	-7	·	103
CCCCOC(=O)C1CCCC(C)N1 (stereo unspecified)	100	0	9	103
COc1ccc(Br)cc1S(=O)(=O)N1CCCCCC1	101	-14	-17	102
CC(=O)ON1C(C)(C)CC(OC(=O)c2ccco2)CC1(C)C	99	·	2	97
CC(=O)Oc1ccc(C)cc1-n1nc2ccccc2n1	108	·	2	113
Cc1ccc(NC(=O)N(Cc2cc3cc(C)cc(C)c3[nH]c2=O)CC2COCCO2)cc1 (stereo unspecified)	104	-6	-12	102
CC(C)(C)OC(=O)Cn1c(=O)cnc2ccccc21	114	110	-9	113
Cc1nc(C(N)=O)c(N)n1C	108	·	2	114

The list goes on:
compound	Polio RdRp inh	Mtb MbtI inh	Mtb MenB inh	Polio RdRp inh intensity
O=C(O)/C=C/C(=O)NN1C(=O)c2ccccc2C1=O	96	·	-11	77
CC[N+]1(CC(O)COC2CC(C)CC(C)(C)C2)CCOCC1 (stereo unspecified)	102	-5	·	104
Cc1cc(C)c2c(CC(=O)NC3CC(C)(C)NC(C)(C)C3)coc2c1	103	-20	-20	102
c1csc(-c2csc(Cc3nc(-c4cccs4)cs3)n2)c1	101	0	-10	104
CC(=O)OC(C(=O)N1CCN(C(c2ccccc2)c2ccccc2)CC1)c1ccccc1 (stereo unspecified)	103	-6	-28	104
CC1(C)CC(=O)NC=C(c2ccccc2)C1	104	22	-20	106
CCC(COc1nnnc2ccccc12)NC(=O)Cn1c(=O)cc(C)c2ccccc21 (stereo unspecified)	99	-9	3	101
O=S1(=O)c2cccc3cccc(c23)N1Cc1cccc(C(F)(F)F)c1	104	149	-53	106
C=CCN1C(=O)/C(=C\c2ccc(O)c(Br)c2)C(=O)NC1=S	100	14	-48	101
Cc1cc2oc(=O)cc(CN(C)c3ccccc3)c2cc1Cl	106	-6	-10	109
C=CCc1ccccc1OCc1nc2ccccc2[nH]1	104	-8	-21	103
O=S(=O)(c1cnc[nH]1)N1CCN(C(c2ccc(F)cc2)c2ccc(F)cc2)CC1	104	-10	-34	102
C=CCN(CC=C)C(=O)Cc1ccc(C)cc1	101	-4	-22	102
CCC(=O)Nc1sc(CC#N)nc1-c1ccc(C)cc1	119	76	12	123
CCNC(C)C(=O)Nc1ccc(C)cc1 (stereo unspecified)	103	2	-128	105

Given with values under each structure: part of the list above
Results follow in this order: Polio RdRp inh | Mtb MbtI inh | Mtb MenB inh | Polio RdRp inh intensity
CCn1c(=NC(=O)c2ccc(C#N)cc2)sc2cccc(F)c21
    105 | 4 | -14 | 107
CCCOc1ccc(Oc2nc(N(C)C)nc(N(C)C)n2)nn1
    101 | 11 | -38 | 105
Cc1nc(C(N)=O)c(N)n1C
    108 | · | 2 | 114
COc1ccccc1CC(=O)N(C(C)C)C(C)C
    99 | -21 | 4 | 104
CC(=O)ON1C(C)(C)CC(OC(=O)c2ccco2)CC1(C)C
    99 | · | 2 | 97

The list continues:
compound	Polio RdRp inh	Mtb MbtI inh	Mtb MenB inh	Polio RdRp inh intensity
CCc1ccc(OCCNc2nc(C)c(Br)c(=O)[nH]2)cc1	102	-3	8	103
O=C(O)C1CCCN1S(=O)(=O)c1ccccc1C(F)(F)F (stereo unspecified)	111	15	9	105
CN(CCC#N)C(=S)Nc1ccc(F)cc1	110	-6	-3	112
CC(C)N1CCC(=NNc2cccc(C(=O)O)c2)CC1	103	4	7	105
CC(C)CC(=O)Nc1ccc(C(=O)Nc2ccc(O)cc2)cc1	99	-129	-1	101
C1CCc2sc(NCC3CCCO3)nc2C1 (stereo unspecified)	106	9	-6	110
O=c1c2ccccc2c(C=Nc2cccc(O)c2)c(O)n1-c1cc(Cl)ccc1N1CCOCC1	103	-3	-261	110
CC(C)N(C(=O)CSc1ncnc2ccccc12)c1ccccc1	104	-1	·	108
Oc1ccc(Nc2nc(-c3ccc(O)cc3)cs2)cc1	100	43	-4	101
CCn1c(=O)cc(OCC(=O)NCc2ccc(C)cc2)c2ccccc21	104	-5	-17	104
COCCCn1c(=O)cc(C)[nH]c1=S	105	8	-4	101
c1ccc2c(c1)nc(NCc1ccncc1)n2CCN1CCCCC1	101	2	-4	101
CC(C)Cn1c(SCC(=O)c2ccc[nH]2)nnc1-c1ccco1	104	10	-9	103
CN(C)S(=O)(=O)Nc1ccc(Oc2ccccc2)cc1	98	-5	0	99
CC1Cc2ccccc2N1S(=O)(=O)c1ccc2c(c1)n(C)c(=O)c(=O)n2C (stereo unspecified)	101	8	-15	107
COc1ccccc1-n1nnc(C(=O)Nc2nccs2)c1C	101	6	3	103
CCN1CCN(C(=O)N[C@@H](C(=O)N[C@@H]2C(=O)N3C(C(=O)O)=C(CSc4nnnn4C)CS[C@H]23)c2ccc(O)cc2)C(=O)C1=O	100	-2	6	101
O=C(Cc1ccc(Cl)cc1)N1CCOCC1	103	11	-40	108
COc1ccc(OCC(=O)Nc2ccc(-c3nc4ncccc4o3)cc2)cc1	100	91	-8	102
O=C1NC(=O)C(=CN2CCc3ccccc32)C(=O)N1	98	13	13	104
CCC(=O)Nc1cccc(-c2nc3ccccc3o2)c1C	103	-74	-14	108
CCc1ccc(NC2SC(=O)N(c3ccccc3)C2=O)cc1 (stereo unspecified)	102	-4	-22	94
Cc1ccn2cc(-c3cccc(NS(=O)(=O)c4cc(C)c(C)cc4C)c3)nc2c1	102	101	-30	104
COc1ccc(OC)c(C2=NOC(C(=O)N3C(C)CCCC3C)C2)c1 (stereo unspecified)	99	-9	-6	102
Cc1nc(C(F)(F)F)nc(N2CCCCC2)c1Oc1ccccc1	105	-10	-10	105
O=S(=O)(NCC1CCCO1)c1ccc2oc3ccc(S(=O)(=O)NCC4CCCO4)cc3c2c1 (stereo unspecified)	102	2	-18	97
O=C(Cn1nnc(-c2ccccc2)n1)NCCC1=CCCCC1	104	-10	-26	105
O=C(OCc1ccc2c(c1)OCO2)c1ccccc1Br	102	-11	·	98
C=CCOc1c(Br)cc(Br)c2cccnc12	102	1	·	99
O=C(OCC(=O)N(Cc1ccco1)C12CC3CC(CC(C3)C1)C2)c1cnccn1	110	3	0	114
O=C(NCc1ccccc1)c1cc2ccccc2[nH]1	108	11	-30	119
N#CCN(CC#N)C(=O)Cc1cccs1	102	-3	4	104
CCn1nc(Nc2ccc(C)cc2)c(Cl)c1Nc1ccc(C)cc1	103	5	-9	99
O=C(Cc1ccccc1)Nn1c(SCC(=O)c2ccccc2)nc2ccccc2c1=O	104	-8	1	105
Cc1cc(-c2ccccc2)nc2cc(C(=O)N3C(C)CCCC3C)nn12 (stereo unspecified)	101	-19	8	103
O=C(NC1CCCCC1)c1ccc2c(Cl)c3c(nc2c1)CCCC3	102	-3	-14	101
CC(=O)N1C(=O)/C(=C\c2cccnc2)NC1=S	120	·	0	125
Cc1ccc(CN(C)C(=O)c2n[nH]c3ccccc23)o1	107	2	-12	116
O/N=C(\c1ccccc1)C1CC2CCC1CC2 (stereo unspecified)	104	1	-54	95
O=S1(=O)CCN2C(=N1)Oc1ccc(Cl)cc12	106	-8	-2	108
Cc1cc(C)nc(NNC2=CC(=O)CC(C)(C)C2)n1	100	14	-91	96

Assay outcomes: PubChem BioAssay, ICCB-Longwood Screening Facility, Harvard Medical School
